Screens: PubChem, several laboratories
LANA-H2A inh – blocks KSHV LANA binding to histone H2A/H2B; Q9QR71; cell-free LANA-H2A/H2B peptide, fluorescence polarization; inhibition, % (test concentration not listed); 320,000 tested, 0.6% active; in the data active = inhibition mostly above about 10%, no sharp cut-off; inactive = mostly below about 6.7%;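 note: stock transfer was 7.5 nL into about 10 µL; 0% = median of vehicle wells and 100% = median of positive control wells; one replicate is shown; the record names a cut of 25% in any replicate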
Target sequence (Q9QR71 whole entry, looked up): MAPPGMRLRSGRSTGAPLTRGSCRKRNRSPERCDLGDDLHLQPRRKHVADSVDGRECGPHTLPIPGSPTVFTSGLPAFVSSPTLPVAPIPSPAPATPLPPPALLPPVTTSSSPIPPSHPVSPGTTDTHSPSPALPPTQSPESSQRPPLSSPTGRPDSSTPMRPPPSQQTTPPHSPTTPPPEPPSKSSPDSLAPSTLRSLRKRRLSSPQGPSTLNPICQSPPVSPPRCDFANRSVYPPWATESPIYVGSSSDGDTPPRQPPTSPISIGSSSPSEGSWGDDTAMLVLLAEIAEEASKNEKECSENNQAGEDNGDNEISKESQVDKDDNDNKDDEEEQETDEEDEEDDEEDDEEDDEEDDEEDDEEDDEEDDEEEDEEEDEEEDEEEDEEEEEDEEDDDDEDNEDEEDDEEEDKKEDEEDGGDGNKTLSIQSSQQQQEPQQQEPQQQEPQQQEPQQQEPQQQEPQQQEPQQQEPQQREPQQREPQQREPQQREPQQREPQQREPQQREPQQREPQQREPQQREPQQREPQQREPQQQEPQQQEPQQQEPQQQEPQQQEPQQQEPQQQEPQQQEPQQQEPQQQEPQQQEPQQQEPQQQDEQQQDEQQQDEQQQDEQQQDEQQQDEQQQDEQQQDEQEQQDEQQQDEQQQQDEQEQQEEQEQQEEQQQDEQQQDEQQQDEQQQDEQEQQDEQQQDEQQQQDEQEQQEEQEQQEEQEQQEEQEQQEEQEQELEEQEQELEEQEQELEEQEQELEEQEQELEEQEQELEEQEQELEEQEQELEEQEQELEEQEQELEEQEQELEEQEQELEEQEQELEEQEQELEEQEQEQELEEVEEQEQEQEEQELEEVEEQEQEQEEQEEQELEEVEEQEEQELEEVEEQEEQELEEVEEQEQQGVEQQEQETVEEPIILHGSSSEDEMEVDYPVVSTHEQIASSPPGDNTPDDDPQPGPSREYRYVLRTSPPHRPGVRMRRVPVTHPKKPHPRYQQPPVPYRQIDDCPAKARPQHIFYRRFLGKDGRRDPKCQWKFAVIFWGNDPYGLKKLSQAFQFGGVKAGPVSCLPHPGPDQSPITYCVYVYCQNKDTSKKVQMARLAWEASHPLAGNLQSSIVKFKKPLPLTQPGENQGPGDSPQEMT
Beta2AR agonist – activates human beta-2 adrenergic receptor causing internalization; response, % (no concentration beside the values); Am2.2-beta2AR cells, FAP receptor internalization, flow cytometry; reference of the scale not given here; P07550; AID 504454; 340,000 tested, 0.43% active;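 active = response above a set limit, near 3 SD of response in nonfluorescent compounds, cut at about 42% in these data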;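 note: stock transfer was 100 nL into about 11 µL; a reference agonist was the positive control; negative values mostly stem from fluorescent compounds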
Calb FLC – C. albicans growth modulation with fluconazole; C. albicans CaCi-2 (fluconazole-resistant clinical isolate) + fluconazole, Alamar Blue growth, 48 h; 300,000 tested, 0.57% active; growth inhibition, % (no concentration beside the values);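 active = most replicates above 75%; inconclusive = exactly half above 75%; inactive = most below 75%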;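 note: all wells also contain fluconazole at 8 µg/ml as a sub-toxic cotreatment; 0% = median of DMSO wells and 100% = median of geldanamycin control wells; wells of about 8 µL received 7.5 nL stock; the first replicate is given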
ALR H2O2 inh – human ALR oxidase inhibition via reduced H2O2 | AID 485317 | inhibition, % (test concentration not listed) | purified ALR, DTT oxidation, H2O2 HRP-luminol luminescence | 290,000 tested, 3.8% active | P55789;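 active = mean and each replicate at 75% or more; inconclusive = only one of the two met; inactive = neither met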;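 note: stock transfer was 7.5 nL into about 7.5 µL; 0% = neutral wells and 100% = wells with inactivated enzyme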
HNF4A DNA FP – change in binding of human HNF4 alpha to DNA; 360,000 tested, 0.3% active; P41235; HNF4a-FITC DNA binding, fluorescence polarization, 1 h; activity change, % at 10 µM; in the data active = activity change above about 30%, passing the limit was not always enough;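 note: controls were the assay level and a saturating level of protein; the project sought stronger binding though the title names inhibitors; some compounds called inactive have numbers as strong as hits; positive values seem to mean higher polarization but the record does not say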
Vif TR-FRET – HIV-1 Vif–A3G interaction blockers – biochemical, TR-FRET, GST-Vif 1-94, biotin-A3G peptide, dose response retest, primary screen (AID 1117319); 260,000 tested, 0.57% active; TR-FRET GST-Vif / biotin-A3G peptide binding; higher % means a stronger effect; test concentration not given here; strong numbers were not always called active; one-dose inhibition, %; IC50 in µM for titrated hits;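 active = above the screen mean plus three standard deviations and confirmed in dose response; inconclusive = results disagree or hit not tested in dose response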;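 note: Vif residues 1-94 fused to GST binding biotinylated APOBEC3G peptide 110-148; 0% = full assay without inhibitor and 100% = GST in place of GST-Vif; retest series ran down from 100 µM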
RanGTP-Impb inh – inhibitors of RanGTP-importin-beta interaction, primary screen, biochemical, FRET, CFP-Ran, YFP-importin-beta, homogeneous | cell-free CFP-Ran/YFP-importin-beta FRET ratio | inhibition, % (test concentration not listed) | 300,000 tested, 1.1% active;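 active = most replicates above 15%; inconclusive = exactly half above 15%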;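 note: 0% = DMSO wells and 100% = Ran loaded with GDP instead of GTP; wells of about 40 µL received 100 nL stock; the first replicate is given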
An asterisk follows results filed as active; ? = inconclusive; / = no result given.

SMILES	LANA-H2A inh	Beta2AR agonist	Calb FLC	ALR H2O2 inh	HNF4A DNA FP	Vif TR-FRET	RanGTP-Impb inh
Nn1c(=O)c2ccccc2n2c(SCc3ccccc3)nnc12	2.3	-9	-3	-9	-0.9	1%	-2.8
O=C(CSc1ccc2nnc(-c3ccc(Cl)cc3)n2n1)N1CCCc2ccccc21	2.3	3	13	-19	3.2	/	?
CC(C)CCNC(=O)NC(=O)CSc1nnc(-c2ccccc2F)n1N	5.1	-1	11	/	0.3	?	-1.4
CC(NC(=O)C1C(=O)N(CCO)C2(C)CC1c1ccccc1O2)c1ccccc1 (stereo not given)	-1.9	1	-8	-2	2.3	77%	1.1
CCN1C=C(Cc2ccccc2C)C2=C(C1)C(c1ccccc1C)C(C#N)=C(N)O2 (stereo not given)	1.9	8	-5	-56	-1.2	3%	10
C[C@H](NC(=O)C1CC(=O)N(c2ccc3c(c2)OCO3)C1)C(=O)NC1CCCC1 (stereo not given in full)	0.4	-2	-5	-1	1.8	/	-0.8
CN(Cc1ccccc1)C(=O)CNC(=O)C12CC3CC(CC(C3)C1)C2	-0.1	-4	/	1	-0.4	-4%	/
CCOC(=O)C1=NN(c2ccc(Cl)cc2)C(c2ccccc2)CC1=O (stereo not given)	-0.3	-1	-13	/	-0.1	1%	?
O=C(CN1C(=O)NC2(CCCCCC2)C1=O)N1CCCCC1	1.8	-17	/	-2	-0.9	-2%	/
CCSc1nnc2c(Cl)cc(Cl)cn12	2.5	1	-5	-11	2.2	-1%	2.9
CC(OC(=O)c1ccccc1C(=O)N(C)Cc1ccccc1)C(=O)NC1(C#N)CCCCC1 (stereo not given)	/	2	/	/	-2.8	-7%	/
O=C(c1ccccc1F)N1CCN(Cc2nc3sc4c(c3c(=O)[nH]2)CCCC4)CC1	5.1	-11	21	-11	1.1	-6%	?
Cc1ccc(-n2c(=O)c3c4c(sc3n(Cc3cc(=O)n5ccccc5n3)c2=O)CCC4)cc1C	0.6	-25	6	-4	1.1	6%	?
COc1ccc(Cl)cc1NC(=O)CCN1C(=O)C2C3C=CC(C4CC34)C2C1=O (stereo not given)	0.1	-6	1	-5	1.1	/	0.8
COc1cc(C(=O)NC(=S)NNC(=O)[C@H]2C[C@@H]2c2ccccc2)cc(OC)c1OC	0.3	7	-6	/	-1.6	?	5.8
CCN(C[C@H]1N[C@@](CC)(C(=O)OC)[C@H]2C(=O)N(C)C(=O)[C@@H]12)S(=O)(=O)c1ccc(-c2ccccc2)cc1	-0.5	-2	/	/	0.7	-4%	/
CCc1nnc(SCC(=O)Nc2ccccc2)n1CC1CCCO1 (stereo not given)	-1.2	0	-18	-13	4.2	/	-2.2
CC1=C(C(=O)Nc2ccccc2C(=O)NCCCN2CCN(C)CC2)SCCO1	-4.7	8	-33	4	3.6	20%	0.4
CCOC(=O)c1nn(-c2ccccc2)c(=O)cc1OCC(=O)Nc1ccccc1OCC	-1.0	-1	4	-5	-0.7	2%	5.2
CC1CCCN(CCCNS(=O)(=O)c2ccc3c(c2)CCN3C(=O)C2CC2)C1 (stereo not given)	-4.6	-10	8	-5	0.4	9%	1.3
Cn1c(=O)n(C)c2cc(NS(=O)(=O)c3ccc4c(c3)CCCC4)ccc21	0.0	-20	-2	-23	4.7	?	2.0
CCOC(=O)c1c(CC(C)C)csc1NC=O	1.3	-2	-11	-5	-1.0	6%	-2.2
CCNc1ccc(Br)cc(C(=O)/C=C/c2ccc(Cl)cc2Cl)c1=O	0.4	-97	0	8	15	?	-13
CSc1nc(-c2ccco2)nn1C(=O)CCc1ccccc1	-0.9	0	-7	2	2.0	2%	/
NC(=S)N/N=C/c1coc2cc(Br)ccc2c1=O	0.6	6	-9	/	-2.8	-1%	5.7

Additional structures follow:
SMILES	LANA-H2A inh	Beta2AR agonist	Calb FLC	ALR H2O2 inh	HNF4A DNA FP	Vif TR-FRET	RanGTP-Impb inh
CC1=CN2C(=N)/C(=C/c3ccc(Sc4ccc(Cl)cc4)o3)C(=O)N=C2S1	-0.2	-17	3	13	13	/	2.5
CCc1cc(N2CCOCC2)cc2c1[nH]c1ccccc12	7.0	11	-1	68	1.6	?	/
Cc1ccccc1Nc1nc(-c2sc(NC(=O)c3ccc([N+](=O)[O-])cc3)nc2C)cs1	3.5	/	8	-11	/	?	-1.6
CCOC(=O)c1ccc(N(C(=O)CNC(=O)c2ccco2)C(C(=O)NCC2CCCO2)c2ccc(OC)c(OC)c2)cc1 (stereo not given)	0.2	-10	5	2	-5.1	-3%	0.3
CSc1ccc(CNc2nc3ccccc3n3cnnc23)cc1	3.6	-2	13	/	6.0	-1%	2.0
COc1cnn(-c2cccc(C)c2)c(=O)c1Cl	2.0	2	6	-2	1.6	-1%	-4.7
Cn1nc(C(F)(F)F)c(-c2ccc(Br)cc2)c1NC(=O)c1nccnc1C(=O)O	3.4	1	0	-1	0.6	9%	1.2
Fc1ccc(-c2csc(-c3cccnc3)n2)cc1F	-0.7	0	-7	31	-1.3	-17%	-4.7
COC(=O)c1ccc(CN2C(=O)NC3(CCCCC3C)C2=O)o1 (stereo not given)	4.6	-3	-1	13	-1.6	6%	0.9
CSCCC(NC(=O)c1ccccc1Cl)C(=O)N1CCCCC1 (stereo not given)	/	-4	/	3	0.1	-6%	/
COCCn1nnnc1SCC(=O)c1ccccc1	-2.5	-11	-4	48	-1.1	-1%	0.1
CCN(CC)C(=O)c1cc(-c2ccc3c(c2)OCO3)on1	-0.7	-6	-3	-4	0.9	-8%	3.8
O=S(=O)(Nc1ccc(O)cc1)c1cccc2cccnc12	-0.2	4	0	101*	1.9	-3%	-0.2
Cc1ccc(S(=O)(=O)N(C)c2ccccc2C(=O)NC2CCCC2)cc1	0.8	-3	-1	-2	-0.1	-5%	9.6
C/C(=N/NS(=O)(=O)c1ccc(C)cc1)[C@H]1C[C@@H]1c1ccccc1	1.2	-32	2	/	-1.3	28%	-2.2
Cc1nn(Cc2ccccc2)c(Cl)c1/C=C/C(=O)OCC(=O)N1CCCC1=O	1.5	1	-4	-3	3.3	1%	4.0
CCOC(=O)C1NN=C(C(=O)c2ccc(C)cc2)C1c1ccc(C)cc1 (stereo not given)	-2.0	2	-2	-6	4.5	3%	-0.6
Cc1nc2cc(NC(=O)N3c4ccccc4CC3C)ccc2o1 (stereo not given)	3.2	-5	3	37	-3.1	?	-4.5
Cc1cc(NC(=O)CSc2nnc(Cc3cccn3C)n2CCc2ccccc2)no1	0.4	-14	/	2	5.9	24%	/
Fc1ccc(Nc2ncnc3sccc23)cc1	-0.9	-17	-1	-1	3.6	/	7.4
CCOC(=O)c1c(S(=O)(=O)NC2CCN(C(=O)OCC)CC2)c(C)n(C)c1C	7.1	-3	-15	0	-1.1	/	5.6
CC(OC(=O)Cn1[nH]c(=O)c2ccccc2c1=O)C(=O)NC1(C#N)CCCCC1 (stereo not given)	-8.0	2	1	-3	1.8	-1%	4.9
Cc1c(C(=O)NNC(=O)c2csc(N3CCOCC3)n2)cccc1[N+](=O)[O-]	-4.1	-5	/	16	-3.2	-3%	/
COCCOC(=O)c1c(C)oc2ccc(NS(=O)(=O)c3cccs3)cc12	-2.8	-3	2	-10	-2.5	-8%	-2.4
COc1ccc(S(=O)(=O)NCCc2c[nH]c3ccccc23)cc1OC	-10	-1	13	/	2.7	-4%	-2.0

Continued:
SMILES	LANA-H2A inh	Beta2AR agonist	Calb FLC	ALR H2O2 inh	HNF4A DNA FP	Vif TR-FRET	RanGTP-Impb inh
C=C(C)C1CCC2(C(=O)O)CCC3(C)C(CCC4C5(C)C(C=O)C(O)C(C)(C)C5CCC43C)C12 (stereo not given)	-6.0	3	3	-4	-4.4	/	0.6
CN1CCN(C2Cc3cc(F)ccc3Sc3ccc(Cl)cc32)CC1 (stereo not given)	-1.3	11	42	-11	-1.6	/	6.5
COc1ccccc1Cn1c(C(C)C)nc2ccccc21	-1.7	-5	27	-2	2.7	-8%	1.8
CC(C)[C@H](NC(=O)[C@@H]1CSC2c3ccccc3C(=O)N21)C(=O)NCC1CCCO1 (stereo not given in full)	3.5	0	4	-2	2.8	3%	-1.5
CCC(CC)N1CCN(CC2CC=CCC2)CC1 (stereo not given)	-2.6	-1	-29	7	-3.7	-10%	2.3
Cc1nnc(SC(C(=O)Nc2cc(Cl)cc(Cl)c2)c2ccccc2)[nH]c1=O (stereo not given)	-1.4	3	27	?	-4.2	4%	?
COC(=O)c1c(NC(=O)COC(=O)[C@@H](NS(=O)(=O)c2cccc(Cl)c2)C(C)C)sc2c1CCC2	3.2	-1	8	1	0.9	-6%	3.7
CC(C)CNC(=O)COC(=O)CCC(=O)c1cccs1	5.8	12	-6	-1	-3.5	/	2.4
Cc1nn(-c2cc(N(S(C)(=O)=O)S(C)(=O)=O)c(Cl)cc2Cl)c(=O)n1C	-3.2	0	2	-11	1.2	11%	3.5
Cc1ccc(/C=C/C2=Cc3c(sc(NC(=O)CSc4n[nH]c(N)n4)c3C#N)C(C)(C)C2)o1	3.0	/	5	-1	/	0.8µM*	-11
C#CCOCCOCCOCCNc1nc(N2CCN(C(=O)CCCCCCCCCCNC(=O)[C@H](CCCCN)n3cc(CCO)nn3)CC2)nc(N2CCN(C(=O)CCCCCCCCCCNC(=O)[C@H](CCCCN)n3cc(CCO)nn3)CC2)n1	-20	23	/	-14	131	/	/
CC(=O)Nc1ccc(C)c(NS(=O)(=O)c2cccc(C(F)(F)F)c2)c1	-1.5	0	2	/	1.3	-2%	2.9
FC(F)Sc1ccc(NC(=S)NCC2CCCCC2)cc1	-4.2	2	-62	0	2.6	-10%	-2.3
O=C1c2ccccc2C(=O)N1/N=C/c1ccc(O)c(O)c1O	/	-6	2	/	-6.4	4.5µM*	6.2
CC(C)c1cc(C(C)C)c(S(=O)(=O)NNC(=O)c2ccncc2)c(C(C)C)c1	0.3	-2	4	-3	0.2	-10%	1.2
COc1ccc(OC)c(S(=O)(=O)N2CCCC(C(=O)NCc3ccco3)C2)c1 (stereo not given)	2.5	20	-1	2	0.3	-5%	-2.5
CCC(=O)N(Cc1ccc2c(c1)OCO2)Cc1cc2cc(OC)ccc2[nH]c1=O	0.8	1	-6	-12	0.1	?	0.8
COc1ccc(C(C)=O)cc1CSc1nncn1C	-7.3	8	14	-11	9.5	8%	-3.8
CCCn1cc(S(=O)(=O)CC(=O)NC2CCCCC2)c2ccccc21	0.4	-3	1	0	0.9	/	1.2
Cc1ccc(N(CN2CCCC2=O)C(=O)c2ccc(C)c(C)c2)cc1	2.4	-2	44	0	-3.0	-3%	-1.3
COc1cccc(CNCc2ccc(OC)c3ccccc23)c1OC	0.8	17	6	-14	-5.8	-7%	3.5
COC(=O)c1ccc(-n2c(CCC(=O)O)ccc2-c2ccccc2)cc1	-3.0	5	8	13	-2.6	13%	-1.4
COc1ccccc1-c1cccc([C@@H]2C[C@H]3[C@H](CON3C)CN2Cc2cc(Cl)cc(Cl)c2)c1	/	2	/	/	-0.6	1%	/
O=C(C1CCN(S(=O)(=O)c2cccs2)CC1)N1CCCCC1	0.9	/	1	0	1.6	14%	-1.2
COc1ccccc1-n1nnnc1SCC(=O)Nc1ccccc1	-2.2	-2	10	-6	-0.3	/	-4.6
O=C(Nc1ccccc1N1CCCC1)c1ccccc1F	-2.7	5	-9	98*	38*	/	-0.5
NC(=O)CSc1nc2ccccc2n1Cc1ccccc1	-4.3	-6	-8	-11	1.5	-1%	2.4
CC(C)CCOP(=O)(c1ccc(N(C)C)cc1)C(O)c1ccc(C(C)C)cc1 (stereo not given)	-1.0	-5	10	-1	1.0	-4%	-1.8

Shown as a hit in Vif TR-FRET (from the list above):
Molecule	LANA-H2A inh	Beta2AR agonist	ALR H2O2 inh	HNF4A DNA FP	Vif TR-FRET	RanGTP-Impb inh
Cc1ccc(/C=C/C2=Cc3c(sc(NC(=O)CSc4n[nH]c(N)n4)c3C#N)C(C)(C)C2)o1	3.0	/	-1	/	0.8µM*	-11
O=C1c2ccccc2C(=O)N1/N=C/c1ccc(O)c(O)c1O	/	-6	/	-6.4	4.5µM*	6.2
